Lassa entry: qHTS for Inhibitors of binding or entry into cells for Lassa Virus | Lassa virus pseudotyped entry inhibition, cell-based qHTS; control for the full effect not named in the record; many of its hits are not listed in these tables | Potency, µM (series often up to 49.2 µM), without a hit: top-dose activity change, negative = inhibition, usual class: inhibitors | 4.1% of 18,000 active | AID 720533, 2013; active = well fitted inhibition curve with a large enough effect; inconclusive = small, poorly fitted or top-dose-only effect; inactive = no such curve, though single readings can be large or run the other way; tested in HEK293 cells; also: luciferase read-out
MARV entry inh: qHTS for Inhibitors of binding or entry into cells for Marburg Virus | Marburg virus pseudotype entry/binding inhibition, cell-based; control for the full effect not named in the record; many of its hits are not listed in these tables | Potency, µM (titrated, usually from 49.2 µM), for the others: top-dose activity change, negative = inhibition, usual class: inhibitors | 6.5% of 18,000 active | AID 720532, 2013; active means well fitted inhibition curve with a large enough effect; inconclusive means small, poorly fitted or top-dose-only effect; inactive means no such curve, though single readings can be large or run the other way; tested in HEK293 cells; also: luciferase read-out
Starred values were filed as active, the others as inactive; ? = inconclusive; · = not tested or not shown; & = joins results of further samples; [ ] = remark or other dose. % is scaled to controls: 0 for no effect and ±100 for the full control effect; potency is read from the fitted curve at half-maximal effect.

Results follow in this order: Lassa entry	MARV entry inh
(1) COCOCCn1cc(CN2CCS(=O)(=O)N(Cc3ccc(-c4ccc(C)cc4)cc3)C(C(C)C)C2=O)nn1 (stereo not given)
→ -7%	-38%
(2) Cc1cc2nc(N3CCC(NC(C)c4nc(-c5ccccn5)no4)CC3)nc(C)c2cc1C (stereo not given)
→ -2%	-28%
(3) COc1ccc(C2CC(=O)Oc3ccc(O)cc32)cc1 (stereo not given)
→ -5%	-14%
(4) O=C(c1ccc(OCCCc2cnc[nH]2)cc1)C1CC1
→ 2%&6%	-2%&21%
(5) COC(=O)CCCC[C@@H]1SC[C@@H]2NC(=O)N[C@@H]21
→ 2%	2%
(6) O=C(NCCc1ccccc1)c1cccc(NC(=O)C2CC2)c1
→ 113%[activator]	115%[activator]
(7) Cc1ccc(CN2CCC(C3(c4ccccn4)NC(=O)N(CC4CCCO4)C3=O)CC2)cc1C (stereo not given)
→ -16%	?
(8) Cc1cc(-c2ccnc(-n3ncc(C(=O)N(C)Cc4nccs4)c3C)n2)c(C)s1
→ -4%	-8%
(9) C=CS(=O)(=O)N(Cc1ccc(Cl)c(Cl)c1)C[C@@H](O)CO
→ ·	?
(10) COc1cc(=O)n2c(c1C(=O)N(C)Cc1nonc1C)CCN(C(=O)C1C(C)(C)C1(C)C)CC2
→ 5%	-7%
(11) Cc1cnc(CNc2ncncc2-c2ccccc2CN(C)C)cn1
→ -5%	-2%
(12) Nc1nc(NC2CC2)c2ncn([C@@H]3C=C[C@@H](CO)C3)c2n1
→ -8%	12%
(13) COc1cc(=O)n2c(c1C(=O)N(C)Cc1nonc1C)CCN(Cc1ccsc1)CC2
→ -24%	?
(14) COc1ccc(CN2CCCC(c3nc(-c4ccncc4)ncc3-c3ccccc3C)C2)c(OC)c1 (stereo not given)
→ 18µM*	3.5µM*
(15) CCc1ccc2c(-c3cccc(Cl)c3)nc(=O)n(CC)c2n1
→ -6%	6%

The results go on.
Results follow in this order: Lassa entry	MARV entry inh
(16) C[C@]12O[C@H]1[C@@H](O)C(Br)=C(CO)[C@H]2O
→ -2%	-30%
(17) CN1CCC[C@@H]1Cc1c[nH]c2ccc(CCS(=O)(=O)c3ccccc3)cc12
→ ?	?
(18) Cc1nn(C)c2nc(NNC(=O)Nc3cc(Cl)nc(Cl)c3)cc(C(C)C)c12
→ -9%	-11%
(19) CNCCCCc1cnc(C)c2[nH]c3ccccc3c12
→ ?	11µM*
(20) Cn1nnnc1SCC1=C(C(=O)O)N2C(=O)[C@@H](NC(=O)[C@H](OC=O)c3ccccc3)[C@H]2SC1
→ -14%	-10%
(21) CCOC(=O)COc1ccc2c(=O)cc(-c3ccccc3)oc2c1
→ -18%&-17%	11%&13%
(22) O=c1c(O)c(-c2ccccc2)oc2ccc3occc3c12
→ -5%	7%
(23) CCO/N=C(\CC)C1=C(O)CC(c2c(C)cc(C)cc2C)CC1=O (stereo not given)
→ -11%[107 µM]	4%[107 µM]
(24) CC(C)CCCC(C)C1CCC2C3CC=C4CC(=O)CC[C@@]4(C)C3CC[C@@]12C (stereo not given in full)
→ 1%	2%
(25) CC(C)[C@@H](CC(=O)N[C@@H]1CCNC[C@H]1C(=O)N[C@H](CC(=O)N[C@@H](CCC(=O)O)CC(=O)O)Cc1ccccc1)NC(=O)C[C@H](Cc1c[nH]c2ccccc12)NC(=O)[C@@H]1CNCC[C@H]1N
→ 3%	-6%
(26) CCCN(CC1CC1)c1cc2c(c3c1ccn3C)C1CCC2C1 (stereo not given)
→ ?	?
(27) CCCCCCOc1ccc(C(=N)N(CCCC)CCCC)c2ccccc12
→ 13µM*	13µM*
(28) COC(=O)[C@H](COC(C)(C)C)NC(=O)O[C@H]1C(=O)c2cc(OC)ccc2O[C@@H]1c1ccc(OC)c(Br)c1
→ -14%	-3%
(29) COC(=O)C1CCCCN1Cc1nc(N2CCCCC2)c2cc(OC)c(OC)cc2n1 (stereo not given)
→ 7%	-26%
(30) CC1=C2C[C@H]3[C@@H](CC=C4C[C@@H](O)CC[C@@]43C)[C@@H]2CC[C@]12O[C@@H]1C[C@H](C)CN[C@H]1C2C (stereo not given in full)
→ -2%	-19%

Other results.
Results follow in this order: Lassa entry	MARV entry inh
(31) COc1cc(C(O)C(=O)O)ccc1O (stereo not given)
→ 5%	0%
(32) COc1cc2c(c(OC)c1OC)C(c1ccc3c(c1)OCO3)CC(=O)O2 (stereo not given)
→ -4%	54%[activator]
(33) Cc1csc(-c2coc3cc(O[C@@H]4O[C@H](CO)[C@@H](O)[C@@H](O)[C@H]4O)ccc3c2=O)n1
→ 28%	53%[activator]
(34) OC1(c2cccnc2)CCN(Cc2ccc3c(c2)CN(Cc2ccc4nsnc4c2)CCO3)CC1
→ 3%	?
(35) CCC(=O)NCc1nc(-c2cccc(NC(=O)c3ccc(C)s3)c2)oc1C
→ -12%	23%
(36) C[C@H](O)C(=O)Nc1c(I)c(C(=O)NC(CO)CO)c(I)c(C(=O)NC(CO)CO)c1I
→ -12%[17.8 µM]	2%[17.8 µM]
(37) C#CCN1C=CC(=O)[C@@H](OC(=O)Nc2ccccc2Br)[C@H]1c1ccccc1Br
→ 18%	?
(38) C[C@H]1CC[C@H]2C(=O)O[C@H](COc3ccc(C(C)(C)C)cc3)CN2[C@H]1c1ccc(Br)cc1
→ ·	-12%[8.59 µM]
(39) OC[C@H]1O[C@@H](O[C@@H]2[C@@H](CO)O[C@](O)(CO)[C@H]2O)[C@H](O)[C@@H](O)[C@H]1O
→ -8%&-15%	6%&5%
(40) CN1CCC(CN2c3ccccc3Sc3ccccc32)C1 (stereo not given)
→ 16µM*	10µM*
(41) CC(=C(CCOC(=O)C(C)C)SSC(CCOC(=O)C(C)C)=C(C)N(C=O)Cc1cnc(C)nc1N)N(C=O)Cc1cnc(C)nc1N
→ -12%	6%
(42) O=C(C[C@H]1C(=O)N(Cc2ccccc2)C[C@@H]1Cc1ccccc1)Nc1ccccc1
→ ?	-29%
(43) COC(=O)C1(C(=O)OC)CC2=CCC3C(=O)N(c4ccccc4)C(=O)C3C2Cc2ccccc2[C@@H]1C[N+](=O)[O-] (stereo not given in full)
→ -14%	3%
(44) CCOC(=O)CNC(=O)O[C@@H]1Cc2cc(OC)ccc2O[C@H]1c1cccc(OC)c1
→ 7%	34%[activator]
(45) COC(=O)CC=C1c2ccccc2C[C@H](OC)[C@@H]1C
→ 2%[8.59 µM]	-1%[8.59 µM]

The results go on:
Results follow in this order: Lassa entry	MARV entry inh
(46) O=C(/C=C\c1ccc(Cl)cc1)N[C@@]12CCC(=O)[C@@H]3Oc4c(O)ccc5c4[C@@]31CCN(CC1CC1)[C@@H]2C5
→ -6%	-10%
(47) CCOc1ccccc1-c1ccc(C(=O)NCc2ccc(Cl)cc2)o1
→ ?	7%
(48) Cc1c(C(=O)N(C)C(C)C)sc2ncnc(NCCCN3CCOCC3)c12
→ -3%	?
(49) Cc1c(C(=O)N2CC3CCC2C3)sc2ncnc(NCCc3c[nH]c4ccccc34)c12 (stereo not given)
→ ?	-21%
(50) COc1cc2c(cc1O)CCNC2C (stereo not given)
→ 8%	-4%
(51) CC(=O)O[C@H]1C[C@@H](O[C@@H]2[C@H](C)O[C@H](O[C@@H]3[C@H](C)O[C@H](O[C@@H]4CC[C@@]5(C)[C@@H](CC[C@]6(C)[C@]5(C)C[C@H](O)[C@]5(C)[C@@H](C7=CC(=O)OC7)CC[C@@]56O)C4)C[C@@H]3O)C[C@@H]2O)O[C@@H](C)[C@H]1O[C@H]1O[C@@H](CO)[C@@H](O)[C@@H](O)[C@@H]1O
→ 0.89µM*	0.89µM*
(52) CCN(CC)CCOC[C@H]1O[C@@H](O)[C@H](OCCN(CC)CC)[C@@H](O)[C@@H]1O
→ -7%	-12%
(53) CC(C)(C#N)O[C@H]1OC(CO)C(O)C(O)C1O (stereo not given in full)
→ -15%	-1%
(54) Cc1cc(C(=O)Nc2cccc(-c3nc(CNC(=O)c4ccc[n+]([O-])c4)c(C)o3)c2)c(C)o1
→ -22%	-9%
(55) CN(C)c1ccc(-c2cncnc2NCc2cccs2)cc1
→ 2%	-2%
(56) COc1ccccc1C1CC(=O)Oc2cc(C)c(Br)c(C)c21 (stereo not given)
→ -17%	9%
(57) CC(O)(COc1ccccc1)c1ccc2c(c1)CN(Cc1cccc3cccnc13)CCO2 (stereo not given)
→ -28%	-7%
(58) O=C(Nc1ccc(C(=O)N2CCOCC2)cc1)c1ccccc1
→ 2%	35%[activator]
(59) CC(C)C[C@H](NC(=O)[C@H](CC(C)C)NC(=O)[C@H](Cc1ccccc1)NC(=O)[C@@H](N)Cc1ccc(O)cc1)C(=O)N[C@@H](CCCN=C(N)N)C(=O)N[C@@H](CC(N)=O)C(=O)N1CCC[C@H]1C(=O)O
→ -6%	-8%
(60) O=Cc1ccco1
→ -14%	-2%

Remaining list, next part
Results follow in this order: Lassa entry	MARV entry inh
(61) CC(C)c1ccc(Nc2nccc(-c3cnn4ncccc34)n2)cc1
→ ·	?
(62) COc1cc(OC)c2ccc(=O)oc2c1C(CCN1CCOCC1)c1ccc2c(c1)OCO2 (stereo not given)
→ -26%	?
(63) CC1(OC(=O)c2ccco2)C(=O)C=C2C=C(C3CC3)OC=C2C1=O (stereo not given)
→ ?	-8%
(64) NCCCNCCCCNC(=O)C(O)NC(=O)CCCCCCN=C(N)N (stereo not given)
→ -4%	20%
(65) COc1ccc2c(c1)O[C@@H](c1ccc3c(c1)OCO3)[C@H](OC(=O)NS(=O)(=O)c1ccc(F)cc1)C2=O
→ 0%	19%
(66) O=P(O)(O)OC[C@H]1O[C@](O)(COP(=O)(O)O)[C@@H](O)[C@@H]1O
→ -3%	28%
(67) CCCCCCCCCCCCCC[C@@H](O)[C@@H](O)[C@@H](N)CO
→ 1%	6%
(68) COc1ccccc1C1CN(CC(=O)NCC2OCCc3ccccc32)Cc2ccccc2O1 (stereo not given)
→ ?	?
(69) COCC1CCCN(Cc2ccc3c(c2)CN(C(=O)c2cccnc2OC)CCO3)C1 (stereo not given)
→ -13%	-22%
(70) O=C1CC(CC(=O)N2CC3CCCC2C3)(c2cccc(F)c2)C(=O)N1Cc1cccnc1 (stereo not given)
→ -15%	-8%
(71) O=C(NCC1CCC2(CCN(Cc3cccc4cccnc34)CC2)O1)c1ccco1 (stereo not given)
→ -6%	-7%
(72) COC1=C[C@H](C(=O)NCc2ccc(Br)cc2)[C@H](C)[C@@H](c2ccccc2)CC1=O
→ 2%[8.59 µM]	-6%[8.59 µM]
(73) COc1ccc(O[C@H]2C=C[C@@H](c3ccccc3)O[C@H]2COC(=O)CCC(C)=NOC[C@@H](C)[C@H](OCc2ccccc2)C(C)C)cc1
→ -28%[8.59 µM]	?
(74) CC(C)CCC[C@@H](C)[C@@H]1CC[C@H]2C3=CC=C4CC(O)CC[C@]4(C)[C@H]3CC[C@@]21C (stereo not given in full)
→ ?	-14%
(75) CCCCCCCC1=CC2=C(Cl)C(=O)C(C)(OC(C)=O)C(=O)C2=CN1C (stereo not given)
→ -12%	-26%

(continued)
Results follow in this order: Lassa entry	MARV entry inh
(76) COc1ccc(CN2CCC3(CC2)c2ccccc2[C@@H](NC(=O)c2ccccc2OC)[C@@H]3O)cc1O
→ -2%	-22%
(77) COC(=O)[C@@H]1[C@@H](c2ccccc2)[C@H]2C(=O)c3c(OC)cc(OC)cc3O[C@@]12c1ccc(OC)cc1
→ 19%[8.59 µM]	3%[8.59 µM]
(78) CNC(Cc1c[nH]c2ccccc12)C(=O)O (stereo not given)
→ 2%	1%
(79) CCCCCCCCC(C)O (stereo not given)
→ 0%	-16%
(80) COC(=O)C/C=C/[C@@H](C)[C@H](NC(=O)OCC(Cl)(Cl)Cl)c1cccc(OC)c1
→ 1%	10%
(81) Nc1ccc(C(=O)O)cc1
→ -3%&-18%	14%&6%
(82) CCCCN1C[C@H](O)[C@@H](O)[C@H](O)[C@H]1CO
→ -18%	-8%
(83) CC(C)NC(=O)c1cn([C@H]2CC[C@@H](NC(=O)/C=C/c3cccs3)CC2)nn1
→ -1%	10%
(84) COc1cccc([C@@H]2Oc3ccc(OC)cc3C[C@H]2OC(=O)NS(=O)(=O)c2ccc(C)cc2)c1
→ -2%	-2%
(85) COc1cccc(-c2nc3cc(SC)ccc3cc2CN(C(=O)c2sccc2C)C2CC2)c1
→ -21%	7%
(86) N[C@@H](C(=O)N[C@@H]1C(=O)N2C(C(=O)O)=C(CSc3cn[nH]n3)CS[C@H]12)c1ccc(O)cc1
→ -22%	15%
